Assay outcomes as filed in PubChem BioAssay.
Rango release inh = qHTS Assay for Inhibitors of RanGTP induced Rango (Ran-regulated importin-beta cargo) - Importin beta complex dissociation. Snurportin-1 (Homo sapiens) + GTP-binding nuclear protein Ran (Homo sapiens) + Importin …. Biochemical FRET Rango-importin beta, RanGTP-induced dissociation. Potency, µM (highest dose often 46.1 µM), for the others: at the highest dose activity change, negative = inhibition. hit rate 0.071% among 340,000. AID 540253, 2011; active means falling FRET ratio curve, often poorly fitted, with flat reads before Ran was added; inconclusive means other falling curves, or compound fluorescence or quenching; inactive means flat or rising ratio curve;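 note: potency is the fitted concentration of half-maximal effect; % of control where 0% means no effect; nearly all actives have a fitted effect of over 45% in size; -100% = wells without RanGTP and RCC1; the record marks most hits as doubtful in a second field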
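Two FRET readings bracket the reaction: one 5 min after compound meets Rango–importin beta, another 45 min after RanGTP-RCC1 (0.6 uM Ran, 0.2 uM RCC1, 2 mM GTP) is added. Only the second defines inhibition.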
GLA inh pH 4.5 = qHTS Assay for Inhibitors of Human alpha-Galactosidase at pH 4.5; Alpha-galactosidase A (Homo sapiens), P06280; purified enzyme, 4-MU-alpha-Gal fluorescence, pH 4.5; activity change, negative = inhibition, % at 105 µM; 230,000 tested, under 10 active; inconclusive = small, poorly fitted or top-dose-only inhibition, or a rising curve; inactive = flat fitted curve, though single readings scatter; no compound was filed as active;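 note: 0% = full activity with enzyme and -100% = basal without enzyme; dose as in the result columns while the protocol names 77 µM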
miR-21 reporter = qHTS Assay for Modulators of miRNAs and/orActivators of miR-21 | HeLa miR-21 FLuc reporter, luciferase, 48 h | Potency, µM (titrated, usually from 38.3 µM), for inactives: at the top dose reporter change, positive = more light | 340,000 tested, under 10 active | AID 2288, 2010; active = well fitted rising curve with a large enough effect; inconclusive = small, poorly fitted or top-dose-only effect; inactive = no such curve, though single readings can be large or run the other way;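 note: % of control where 0% means no effect; miR-21 action dims this reporter so a rising signal means less miR-21 action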
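HeLa cells endogenously expressing miR-21, stably carrying CMV-driven firefly luciferase with a downstream miR-21 binding site, 2000 cells/well. Titrations up to approximately 40 uM, 48 hours; luciferase luminescence read.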
Rango complex inh = qHTS Assay for Inhibitors of Rango (Ran-regulated importin-beta cargo) - Importin beta complex formation | Importin subunit beta-1 (Homo sapiens), Q14974 | Rango CFP/YFP FRET sensor + importin beta, 45 min | Potency, µM (top dose mostly 92.2 µM), without a hit: at the highest dose inhibition of complex formation | hit rate 0.031% among 340,000; active = rising FRET ratio curve, often small or poorly fitted; inconclusive = mostly compound fluorescence or quenching in the first reads; inactive = flat curves in all reads;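 note: potency is the fitted concentration of half-maximal effect; 0% = DMSO wells and 100% = buffer wells lacking importin beta; nearly all actives have a fitted effect of over 15% in size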
Target sequence (Q14974 whole entry, looked up): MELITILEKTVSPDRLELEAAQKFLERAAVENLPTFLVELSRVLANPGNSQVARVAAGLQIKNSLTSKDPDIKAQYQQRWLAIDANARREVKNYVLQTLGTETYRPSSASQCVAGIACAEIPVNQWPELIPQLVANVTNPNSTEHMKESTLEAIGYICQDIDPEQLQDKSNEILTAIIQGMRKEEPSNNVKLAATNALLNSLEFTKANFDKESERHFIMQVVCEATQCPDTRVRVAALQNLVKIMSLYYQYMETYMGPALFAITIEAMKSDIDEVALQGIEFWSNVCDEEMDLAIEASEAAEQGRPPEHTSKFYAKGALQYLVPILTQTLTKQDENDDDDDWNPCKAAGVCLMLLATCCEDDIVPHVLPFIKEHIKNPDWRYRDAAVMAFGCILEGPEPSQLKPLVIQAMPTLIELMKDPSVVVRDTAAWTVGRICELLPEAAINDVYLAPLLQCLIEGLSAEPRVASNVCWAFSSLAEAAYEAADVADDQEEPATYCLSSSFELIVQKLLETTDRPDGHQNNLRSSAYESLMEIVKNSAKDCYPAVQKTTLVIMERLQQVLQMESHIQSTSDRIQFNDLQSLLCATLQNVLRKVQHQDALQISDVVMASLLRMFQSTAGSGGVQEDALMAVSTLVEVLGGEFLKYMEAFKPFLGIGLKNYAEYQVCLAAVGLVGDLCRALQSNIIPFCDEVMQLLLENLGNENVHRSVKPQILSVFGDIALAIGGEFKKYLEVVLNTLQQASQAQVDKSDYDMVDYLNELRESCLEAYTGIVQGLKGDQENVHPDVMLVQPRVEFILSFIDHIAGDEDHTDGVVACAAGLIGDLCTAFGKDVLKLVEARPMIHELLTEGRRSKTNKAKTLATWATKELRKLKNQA
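Inhibition scored from the CFP 486 nm/YFP 530 nm FRET ratio 45 min after adding 0.125 microM importin beta to 50 nM Rango biosensor preincubated 5 min with compound (room temperature, PBS with DTT, Tween-20, BSA). No-importin wells as positive control.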
The depositor's hits bear a star; ? = inconclusive; . = not tested or not shown.

SMILES	Rango release inh	GLA inh pH 4.5	miR-21 reporter	Rango complex inh
Cc1ccc(NC(=O)C2CC(=O)N(Cc3ccccc3)C2)nc1 (configuration not stated)	-9%	.	.	-3.1%
Cc1ccc(/C=N/Nc2nc(C(C)(C)C)cs2)o1	3%	.	-39%	-4.0%
CC(C(=O)NCc1ccc(Cl)cc1)n1cccc1C(=O)c1ccccc1 (configuration not stated)	-8%	.	3%	3.5%
O=C(COC(=O)CNS(=O)(=O)c1ccccc1)Nc1ccc(Cl)cn1	-11%	7	0%	2.2%
Cc1cc(C)cc(NC(=S)N2CCN(c3ncc(C(F)(F)F)cc3Cl)CC2)c1	0%	4	-3%	-4.2%
CC(OC(=O)C1CCN(S(=O)(=O)c2ccc(C(C)(C)C)cc2)CC1)C(=O)N1CCOCC1 (configuration not stated)	-4%	.	.	-3.6%
CC1=NN(C(=S)Nc2ccccc2)C(C)(C)C1	3%	3	-27%	4.1%
O=C(NC1CCC(O)CC1)c1cc(Cl)c2c(c1)OCCO2 (configuration not stated)	1%	.	.	4.9%
Cc1ncccc1C(=O)N1CCCC(CCC(=O)N2CCN(c3ccccn3)CC2)C1 (configuration not stated)	-6%	.	1%	-4.4%
O=C(CN1C(=O)CSc2ccc(S(=O)(=O)N3CCOCC3)cc21)N1CCCCC1	1%	.	-2%	2.1%
CCn1ccnc1CNC(=O)c1ccc2oc(CCCc3ccccc3)nc2c1	15%	.	-15%	-1.8%
Cc1c(C(=O)N2CCC(Cc3ccccc3)CC2)sc2ncnc(N3CCC(C)CC3)c12	5%	-3	1%	-0.1%
CCN(CC)CCN1C(=O)C(=O)/C(=C(/O)c2ccccc2)C1c1ccccc1F (configuration not stated)	2%	-1	-1%	-0.1%
Cc1ccc(S(=O)(=O)N2CCOCC2)cc1NC(=O)COC(=O)c1cc(=O)c2ccccc2o1	14%	-6	2%	1.6%
CCc1ccc(NC(=S)NCc2cccnc2)cc1	15%	-5	-7%	0.0%
CC(C)(CO)NCc1ccccc1OCC(=O)Nc1ccccc1	2%	-10	-33%	0.7%
CN(C)CCNc1ncnc2ccccc12	9%	0	-15%	-3.1%
CCCn1c(=N)c(S(=O)(=O)c2ccccc2)cc2c(=O)n3cccc(C)c3nc21	?	.	-2%	?
O=C(CCSCCc1ccccn1)Nc1cccc([N+](=O)[O-])c1	-22%	2	-1%	-9.3%
O=C(Nc1cccc(C(=O)NC2CC2)c1)c1ccc(F)c(S(=O)(=O)N2CCOCC2)c1	7%	.	.	3.0%
Nc1nnc(SCC(=O)NNC(=O)c2ccc(F)cc2)s1	-18%	.	.	-0.3%
O=C(OCC(=O)N1CCN(C(=O)c2ccco2)CC1)c1ccccc1NCCO	-14%	.	.	4.9%
CCOC(=O)C1CCCN(S(=O)(=O)c2cc3c(cc2Cl)NC(=O)CO3)C1 (configuration not stated)	-2%	.	0%	-0.9%
O=C(NCCS(=O)(=O)N1CCN(c2ccccc2)CC1)c1cccc(F)c1	17%	.	.	-0.9%
CCOC(=O)c1c(NC(=O)CSc2ncn[nH]2)sc(C(=O)N(C)C)c1C	7%	.	.	-0.2%
Continued:
SMILES	Rango release inh	GLA inh pH 4.5	miR-21 reporter	Rango complex inh
CC(C)N(C(=O)CSc1nnc(NC(=O)Cc2cccs2)s1)C(C)C	0%	7	0%	0.8%
CC(C)c1ccc(NC(=O)C2CCCCC2C(=O)O)cc1 (configuration not stated)	15%	-1	-17%	-2.7%
CCOC(=O)C1=CN(Cc2ccco2)S(=O)(=O)N(C)C1c1ccccc1 (configuration not stated)	-6%	.	.	-1.3%
C=CCNc1nc(C(=O)OCC(=O)c2ccc(F)cc2)cs1	2%	.	.	5.4%
CCN(CC)CCN1C(=O)c2ccccc2NC1c1cc(OC)c(OC)c(OC)c1 (configuration not stated)	1%	-3	-3%	-1.0%
O=c1[nH]c(CN2CCOCC2)nc2ccccc12	0%	-2	1%	-0.2%
COc1cc(NC(=O)c2cccnc2Sc2ccc(Cl)cc2)cc(OC)c1OC	1%	-8	19%	3.2%
CC(=O)Nc1nc(C)nc(C)c1C(C)=O	8%	-18	-3%	-0.7%
Cc1cc(C)nc(NC(=O)Cc2ccc(Br)cc2)n1	48%	4	-7%	-1.4%
CNC(=O)c1ccc(Nc2nnc(-c3ccc(C)c(S(N)(=O)=O)c3)c3ccccc23)cc1	0%	.	-4%	-0.9%
O=C(COC(=O)CCc1nc2ccccc2c(=O)[nH]1)Nc1ccc2c(c1)OCO2	4%	-1	2%	-1.2%
Nc1ncc2c(n1)-c1ccccc1CC2	-5%	12	-3%	-1.6%
CC(=O)c1sc(NC(=O)c2oc3ccc(F)cc3c2C)nc1C	-1%	.	.	-5.0%
COc1ccc(C(=O)COc2ccc(F)cc2)c(O)c1C	5%	2	-7%	-0.1%
Cc1nn(-c2ccccc2)c(N)c1N=Nc1cccnc1	-1%	-17	-108%	1.7%
Cc1ccc2nc(C(=O)N3CCCC(Nc4ccc(F)cc4)C3)cn2c1 (configuration not stated)	2%	.	-36%	-0.1%
CCCCCN(C(=O)NC(=O)Nn1cnnc1)S(C)(=O)=O	6%	4	4%	0.7%
O=C(CSc1nnc(-c2ccncc2)o1)Nc1ccc(F)c(F)c1	9%	.	.	4.9%
N#Cc1c(=O)c2nc(NCc3ccccc3)ncc2n2ccccc12	?	-1	-3%	?
COc1ccc(C)cc1NC(=O)C1CC(=O)N(CCc2ccccc2)C1 (configuration not stated)	4%	-3	-7%	-4.0%
Cc1ccc(N(CC(=O)NCC2CCCO2)S(=O)(=O)c2ccccc2)c(C)c1 (configuration not stated)	40%	.	-5%	1.8%
COCCOn1c(SCCOC)nc2ccccc2c1=O	0%	4	0%	-0.8%
O=C(Cn1cnc2scc(-c3ccccc3)c2c1=O)NCc1ccco1	-4%	9	0%	-2.0%
NS(=O)(=O)c1ccc(NC(=O)c2ccc(F)cc2F)c(NC(=O)c2ccc(F)cc2F)c1	22%	.	-3%	-0.3%
O=C(CNC(=O)c1ccccc1Cl)Nc1ccc(F)cc1	-14%	-9	-29%	-0.3%
Additional structures follow:
SMILES	Rango release inh	GLA inh pH 4.5	miR-21 reporter	Rango complex inh
NC(=O)NCCCC(NC(=O)c1ccc(C#CC2(O)CCCCC2)cc1)C(=O)O (configuration not stated)	-16%	5	-1%	3.0%
NC(=O)c1ccsc1NC(=O)COC(=O)/C=C/c1ccccc1[N+](=O)[O-]	20%	.	.	-1.3%
Cc1ccccc1-c1ccc(=O)n(CC(=O)Nc2ccc(N3CCOCC3)cc2)n1	1%	5	1%	5.5%
COC(=O)c1ccc(N)cc1O	-16%	4	-3%	-1.0%
COc1ccc(CNC(=O)C(C)N2C(=O)NC(c3ccccc3)(c3ccccc3)C2=O)cc1 (configuration not stated)	0%	.	.	0.7%
CCn1c(C)c(C(C)=O)c(N2CCCCC2)nc1=S	10%	5	-3%	-5.6%
CC(=O)Oc1ccc(C(=O)Nc2cccc(C(=O)c3ccc(C)c(C)c3)c2)cc1	-10%	-7	1%	6.0%
CCOc1ccc(C(C(=O)NC2CCCCC2)N(C(=O)Cc2cccs2)c2ccc(-n3cnnn3)c(OC)c2)cc1 (configuration not stated)	5%	5	-6%	-0.1%
CN(C)C(=O)CN(C)S(=O)(=O)c1ccc(Cl)cc1	3%	6	-5%	0.7%
C/C(=N\NC(=O)Cc1ccc(Cl)cc1)c1cccnc1	-1%	.	0%	2.3%
O=C(CCCC(=O)OCC(=O)c1cccs1)Nc1ccc(Oc2ccccc2)cc1	1%	-8	-1%	-0.7%
C=CCn1c(=S)sc2c(=O)[nH]cnc21	31%	0	5%	-5.6%
COc1ccc(CCNC(=O)c2cccc(S(=O)(=O)N3CCCCCC3)c2)cc1	8%	.	.	-3.6%
Cn1ccnc1SCCC#N	-8%	3	1%	-2.7%
NNC(=O)c1csc(COc2cc(Cl)cc(Cl)c2)n1	2%	3	-4%	-0.5%
CCC(=O)N1CCc2cc(S(=O)(=O)NC(C(=O)NCc3ccccc3)C(C)C)ccc21 (configuration not stated)	?	7	-7%	4.0%
Cc1cccc(OCC(=O)NCC(=O)N/N=C/c2cccnc2)c1	1%	-7	3%	3.5%
CN(C)c1ccc(/C(=N\O)C(F)(F)F)cc1	0%	-5	9%	6.1%
CCC1(CC)C(=O)C2=C3C1[C@H](C(=O)OC)CC(C(=O)OC)C[C@H]3n1c(=O)n(-c3ccccc3)c(=O)n1[C@H]2C (some centres not stated)	-3%	.	.	-1.6%
COC(=O)[C@H](CCSC)NC(=O)Nc1cccc(C)c1C	2%	4	1%	-0.5%
O=C(O)c1cnc(N2CCOCC2)nc1	12%	-6	3%	0.5%
NCC(O)COCCC12CC3CC(CC(C3)C1)C2 (configuration not stated)	15%	-4	-2%	1.3%
CC(C)CN(C(=O)CC1CCCC1)c1c(N)n(Cc2ccccc2)c(=O)[nH]c1=O	18%	.	.	-0.7%
CCCCNC(=O)[C@@H]1CC=C[C@@H]2CCN(C3CC3)C(=O)[C@@H]21	6%	.	.	3.2%
CCc1ccc(NC(=O)C(CC)c2ccccc2)cc1 (configuration not stated)	-2%	-2	-9%	-4.4%

Nothing new here: entries from further up.
SMILES	Rango release inh	GLA inh pH 4.5	miR-21 reporter	Rango complex inh
NC(=O)NCCCC(NC(=O)c1ccc(C#CC2(O)CCCCC2)cc1)C(=O)O (configuration not stated)	-16%	5	-1%	3.0%
NC(=O)c1ccsc1NC(=O)COC(=O)/C=C/c1ccccc1[N+](=O)[O-]	20%	.	.	-1.3%
Cc1ccccc1-c1ccc(=O)n(CC(=O)Nc2ccc(N3CCOCC3)cc2)n1	1%	5	1%	5.5%

Whole records, looked up by structure. Values in the order: Rango release inh | GLA inh pH 4.5 | miR-21 reporter | Rango complex inh
Entry for C=CCn1c(=S)sc2c(=O)[nH]cnc21 = 31% | 0 | 5% | -5.6%
Entry for Cc1ccccc1-c1ccc(=O)n(CC(=O)Nc2ccc(N3CCOCC3)cc2)n1 = 1% | 5 | 1% | 5.5%

The list continues:
SMILES	Rango release inh	GLA inh pH 4.5	miR-21 reporter	Rango complex inh
Cc1c(C(=O)N2CCOCC2)c(S(=O)(=O)Nc2cccc(C#N)c2)c(C)n1C	-7%	.	-2%	-0.3%
Cc1cc(C)c(S(=O)(=O)N2CCCC2CNC(=O)c2ccc3c(c2)OCO3)c(C)c1 (configuration not stated)	30%	.	.	?
CCN(CCO)C(=O)C12CCC(C)(C(=O)C1)C2(C)C (configuration not stated)	5%	7	-7%	-1.8%
C[C@H](NC(=O)c1nc[nH]c1C(=O)NCc1ccc(CNC(=O)OC(C)(C)C)cc1)c1ccccc1	-6%	.	.	-1.6%
Cc1noc(C)c1C(=O)Nc1cccc(S(=O)(=O)N2CCCCC2)c1	41%	.	.	1.2%
COc1ccccc1NC(=O)CC1COc2ccccc2O1 (configuration not stated)	10%	7	-15%	3.8%
C/C(=C/C(=O)NCc1ccccc1)C(=O)O	2%	14	-2%	-3.0%
CCn1c2ccccc2c2cc(NC(=O)c3coc(=O)c(Br)c3)ccc21	.	-8	2%	.
Cc1cc(=O)oc2cc(OCC(=O)NCc3cccnc3)ccc12	0%	-26	-3%	3.4%
CCOc1cc(/C=C\c2[nH]c(=O)[nH]c(=O)c2[N+](=O)[O-])ccc1OC(C)CC (configuration not stated)	3%	-2	-5%	3.9%
Cc1ccccc1NC(=O)NC1(C(=O)N2CCN(C)CC2)CCCCC1	-10%	.	0%	-2.2%
Cc1cc(N=CC2=C(O)CC(C)(C)CC2=O)no1	-9%	-20	-2%	-0.4%
C[n+]1ccc(/C=N/Nc2nc(Cl)c(C#N)c(Cl)c2Cl)cc1	?	-2	13%	?
COc1ccccc1OCC(=O)NCc1n[nH]c(=O)c2ccccc12	-7%	.	.	1.3%
O=[N+]([O-])c1cccc(/C=N/NC2=NCCCCC2)c1	2%	4	-45%	5.4%
O=C(COC(=O)Cc1ccsc1)Nc1ccc(Cl)cn1	4%	.	.	1.5%

The list is partial (hit frequency here may not be typical).
